# Source: PubChem
# Rango complex inh = qHTS Assay for Inhibitors of Rango (Ran-regulated importin-beta cargo) - Importin beta complex formation; AID 540263, 2011; Importin subunit beta-1 (Homo sapiens), Q14974; Rango CFP/YFP FRET sensor + importin beta, 45 min; 340,000 compounds, 0.031% hits; Potency, µM (highest dose often 92.2 µM), for the others: at the highest dose inhibition of complex formation; active = rising FRET ratio curve, often small or poorly fitted; inconclusive = mostly compound fluorescence or quenching in the first reads; inactive = flat curves in all reads;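 also: potency is read from the fitted curve at half-maximal effect; 0% = DMSO wells and 100% = buffer wells lacking importin beta; nearly all actives have a fitted effect of over 15% in size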
# Target sequence (Q14974 whole entry, looked up): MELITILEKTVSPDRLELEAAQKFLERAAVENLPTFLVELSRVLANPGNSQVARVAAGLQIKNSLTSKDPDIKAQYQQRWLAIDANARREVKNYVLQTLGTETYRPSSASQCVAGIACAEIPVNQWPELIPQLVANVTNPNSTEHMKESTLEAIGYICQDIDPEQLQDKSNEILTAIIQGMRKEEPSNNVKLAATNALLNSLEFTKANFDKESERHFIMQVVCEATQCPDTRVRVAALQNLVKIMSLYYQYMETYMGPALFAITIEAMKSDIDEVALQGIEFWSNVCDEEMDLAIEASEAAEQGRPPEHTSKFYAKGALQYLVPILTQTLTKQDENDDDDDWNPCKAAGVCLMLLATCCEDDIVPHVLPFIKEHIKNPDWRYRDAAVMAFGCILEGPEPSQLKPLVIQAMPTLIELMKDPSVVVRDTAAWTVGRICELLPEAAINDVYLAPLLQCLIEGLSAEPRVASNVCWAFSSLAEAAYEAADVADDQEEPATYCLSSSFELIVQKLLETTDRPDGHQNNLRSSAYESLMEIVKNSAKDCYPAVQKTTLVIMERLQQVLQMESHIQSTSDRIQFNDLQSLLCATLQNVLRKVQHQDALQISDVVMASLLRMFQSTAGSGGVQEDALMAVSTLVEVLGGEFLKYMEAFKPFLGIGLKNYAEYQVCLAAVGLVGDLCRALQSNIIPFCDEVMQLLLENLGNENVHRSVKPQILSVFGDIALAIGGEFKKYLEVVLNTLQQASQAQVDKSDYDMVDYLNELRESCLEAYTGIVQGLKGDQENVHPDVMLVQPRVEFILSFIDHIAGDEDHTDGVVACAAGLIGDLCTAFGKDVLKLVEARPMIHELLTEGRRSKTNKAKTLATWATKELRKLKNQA
#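 FRET biosensor (snurportin 1 IBB flanked by EYFP and cerulean), 50 nM, with compound 5 min, then 0.125 microM importin beta in PBS, 1 mM DTT, 0.02% Tween-20, 0.1% BSA. CFP/YFP ratio read after 45 min at room temperature; pre-read flags interference.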
# miR-21 FLuc = qHTS Assay for Modulators of miRNAs and/orActivators of miR-21. HeLa miR-21 FLuc reporter, luciferase, 48 h. Potency, µM (highest dose often 38.3 µM), inactives show top-dose reporter change, positive = more light. 340,000 tested, under 10 active; active = well fitted rising curve with a large enough effect; inconclusive = small, poorly fitted or top-dose-only effect; inactive = no such curve, though single readings can be large or run the other way;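 also: % of control where 0% means no effect; miR-21 action dims this reporter so a rising signal means less miR-21 action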
#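 HeLa cells stably expressing CMV-driven firefly luciferase with a downstream miR-21 binding sequence, endogenously expressing miR-21, were treated with titrations (up to about 40uM final) for 48 hours at 37 degree Celsius. Luciferase luminescence was read after lysis.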
# GLA inh pH 4.5 = qHTS Assay for Inhibitors of Human alpha-Galactosidase at pH 4.5. purified enzyme, 4-MU-alpha-Gal fluorescence, pH 4.5. activity change, negative = inhibition, % at 105 µM. Alpha-galactosidase A (Homo sapiens), P06280. AID 1467, 2008. 230,000 tested, under 10 active; inconclusive = small, poorly fitted or top-dose-only inhibition, or a rising curve; inactive = flat fitted curve, though single readings scatter; no compound was filed as active;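 also: 0% = full activity with enzyme and -100% = basal without enzyme; dose as in the result columns while the protocol names 77 µM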
# Rango dissoc inh = qHTS Assay for Inhibitors of RanGTP induced Rango (Ran-regulated importin-beta cargo) - Importin beta complex dissociation. Biochemical FRET Rango-importin beta, RanGTP-induced dissociation. Potency, µM (doses to about 46.1 µM), without a hit: at the top dose activity change, negative = inhibition. 340,000 compounds, 0.071% hits; active means falling FRET ratio curve, often poorly fitted, with flat reads before Ran was added; inconclusive means other falling curves, or compound fluorescence or quenching; inactive means flat or rising ratio curve;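 also: potency is read from the fitted curve at half-maximal effect; % of control where 0% means no effect; nearly all actives have a fitted effect of over 45% in size; -100% = wells without RanGTP and RCC1; the record marks most hits as doubtful in a second field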
#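 Compounds preincubate 5 min with complex of recombinant Rango and importin beta in PBS with 1 mM DTT. Ran (0.6 uM) loaded with 2 mM GTP plus 0.2 uM RCC1 starts dissociation; FRET is recorded 45 min later.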
# An asterisk follows results filed as active; ? = inconclusive; . = no result given; & = joins results of further samples. Not all compounds are listed (hit frequency here may not be typical).
SMILES,Rango complex inh,miR-21 FLuc,GLA inh pH 4.5,Rango dissoc inh
COc1ccc(S(=O)(=O)NCC(=O)N(Cc2ccco2)C(C(=O)NC(C)(C)C)C(C)C)cc1 (centres undefined),-0.2%,-2%,.,0%
O=C(Cn1c(CN2CCCCC2)nc2ccccc2c1=O)NCc1ccco1,-4.1%,1%,-12,2%
COc1cccc(-c2nn(-c3ccccc3)cc2/C=C(/NC(=O)c2ccccc2)C(=O)O)c1,-1.9%,6%,-1,21%
CN1CCC(C2(O)c3ccccc3CSc3sccc32)CC1 (centres undefined),3.9%,-4%,7,-5%
CCOc1cc(NS(C)(=O)=O)c(OCC)cc1NC(=O)c1cccs1,?,-5%,-7,-22%
O=C(Cc1ccccc1)Nc1ccccc1CO,1.1%,-4%,-10,1%
O=C(NCCCn1ccnc1)/C(=C\c1cccs1)NC(=O)c1ccccc1,3.3%,-6%,0,26%
O=C(CSc1nc2ccccc2c(=O)n1CC1CCCO1)NCc1ccc2c(c1)OCO2 (centres undefined),-1.0%,-3%,7,1%
CCN1C(=O)[C@H]2[C@@H](c3ccc(-c4ccccc4)c(OC)c3)N[C@@](Cc3ccccc3)(C(=O)OC)[C@H]2C1=O,-5.0%,.,.,14%
CC(C)CN(C(=O)CSc1nncs1)c1c(N)n(CC(C)C)c(=O)[nH]c1=O,-1.3%,1%,4,1%
CCOc1ccc(CNC2CCCc3ccccc32)cc1 (centres undefined),0.0%,-9%,-3,2%
COCCn1cc(C(=S)N2CCCCC2)c2ccccc21,0.3%,-4%,-4,-4%
COc1ccc(NC(=O)CCS(=O)(=O)c2ccccc2)c(OC)c1,-1.3%,-24%,0,-2%
COc1ccc(NC(=O)CSc2nccn2Cc2ccco2)cc1OC,0.0%,-31%&-15%,.,-7%
CCOC(=O)C1CCN(C(=O)Cc2ccc(-c3ccccc3)cc2)CC1,-0.2%,12%,.,0%
CCOC(=O)c1cn(Cc2ccc(Cl)cc2Cl)c2cc(C)nn2c1=O,-0.3%,-5%,-6,-11%
COc1cc(-c2nnc(-c3cccnc3)o2)cc(OC)c1OC,4.7%,1%,4,-10%
Cc1ccc[n+](CC(=O)c2cc3ccccc3oc2=O)c1,-2.6%,-8%,-5,-7%
O=C(CNc1ccc(Br)cc1)Nc1ccc(S(=O)(=O)N2CCCC2)cc1,-1.7%,.,.,7%
O=C(COc1ccc(Cl)cc1)N1N=C(c2cccs2)CC1c1ccco1 (centres undefined),0.2%,.,.,-8%
CCOC(=O)C1CCCN(C/C(O)=C(\C#N)c2nc(-c3ccccc3)cs2)C1 (centres undefined),?,-12%,-2,-23%
CC(=O)OCC(=O)Nc1ccc(C(C)=O)cc1,2.7%,3%,3,8%
CC(C)NC(=O)COC(=O)c1cc(F)c(F)cc1Cl,0.0%,0%,-2,17%
CCOC(=O)Cc1nnc2c(Nc3ccc(C)cc3)nc3nonc3n12,-3.8%,2%,1,-10%
CCC(C)NC(=S)NNC(=O)c1ccc(C(C)(C)C)cc1 (centres undefined),-2.8%,-20%,0,-2%
O=C(Cn1ccc([N+](=O)[O-])n1)NCc1ccco1,-0.7%,-2%,8,7%
COc1ccc(C2CC(O)(c3ccccc3)Oc3c(C)ccc(C)c32)cc1 (centres undefined),-0.3%,10%,-9,10%
COc1ccc(CN2C(=O)c3cccnc3C2=O)cc1S(=O)(=O)N(C)c1ccc(C)cc1,1.1%,5%,.,4%
CC1CCc2nc(NC(=O)CN3CCN(c4ccccc4)CC3)sc2C1 (centres undefined),-0.4%,-3%,-6,-2%
Nc1nc(NCC2CCCO2)nc(Nc2ccccc2F)c1[N+](=O)[O-] (centres undefined),10%,-7%,-5,11%
O=C(CN(Cc1ccco1)C(=O)Cn1nnc(-c2ccc(F)cc2)n1)NC1CCCC1,8.2%,-2%,4,3%
Cc1cc(C)c2c(N)c(C(=O)N3CCc4ccccc4C3)sc2n1,?,-27%,8,-24%
CCc1ccccc1NC(=O)CCS(=O)(=O)c1ccc(Br)cc1,0.4%,-4%,.,19%
c1ccc2oc(NC3=NCN(C4CCCCC4)CN3)nc2c1,0.3%,-20%,7,9%
S=C(Nc1ccc(Br)cc1)N1CCn2cccc2C1c1cccnc1 (centres undefined),-1.4%,9%,-21,3%
FC(F)(F)c1ccccc1-n1c(-c2cnccn2)n[nH]c1=S,0.7%,-34%,-3,-4%
O=C(Nc1ccc(F)c([N+](=O)[O-])c1)C(=O)c1c(O)[nH]c2ccccc12,-3.3%,-8%,-3,-4%
CC(C)c1ccc(/C=C(/C#N)c2nnc(NC(=O)c3ccccc3)s2)cc1,?,-7%,-8,?
COc1ccc(N2C(=O)CC(NNc3nc4ccccc4s3)C2=O)cc1 (centres undefined),0.0%,-1%,-2,-14%
O=C(OCC(=O)N1CCCc2ccccc21)c1ccccc1OC(F)F,-0.6%,.,.,1%

# Compound profiles, as listed above. Values in the order: Rango complex inh, miR-21 FLuc, GLA inh pH 4.5, Rango dissoc inh
# FC(F)(F)c1ccccc1-n1c(-c2cnccn2)n[nH]c1=S in the list: 0.7%, -34%, -3, -4%
# O=C(OCC(=O)N1CCCc2ccccc21)c1ccccc1OC(F)F in the list: -0.6%, ., ., 1%
# O=C(CN(Cc1ccco1)C(=O)Cn1nnc(-c2ccc(F)cc2)n1)NC1CCCC1 in the list: 8.2%, -2%, 4, 3%

# Remaining list, next part.
SMILES,Rango complex inh,miR-21 FLuc,GLA inh pH 4.5,Rango dissoc inh
CCOc1ccc2nc(N(CCN(C)C)C(=O)c3ccc4ccccc4c3)sc2c1,3.9%,-17%,.,16%
O=C(COC(=O)C1COc2ccccc2O1)NC1CCCCC1 (centres undefined),-0.8%,.,.,-6%
Cc1ccc2[nH]c(=O)c(CN(Cc3ccco3)C(=O)N3CCOCC3)cc2c1,5.5%,-1%,5,3%
CN1CCN(S(=O)(=O)c2ccc(SCCOc3ccc(Cl)cc3)nc2)CC1,0.0%,.,.,-5%
O=C(Nc1ccc(S(=O)(=O)N2CCOCC2)cc1)c1ccc(Cl)cc1Cl,?,7%,.,-17%
CC(=O)c1ccc(N2CCCCC2)c(F)c1,-0.6%,-5%,4,-13%
CCC(CC)C(=O)Nc1cccc(C(=O)NC(C)(C)C)c1,-0.9%,-4%,4,-3%
CN(C)S(=O)(=O)c1cccc(NC(=O)c2ccc(OC(F)(F)F)cc2)c1,-2.4%,16%,-2,-8%
CCNC(=O)c1cc(Cl)ccc1OC,0.8%,-3%,-7,1%
C=CCNC(=O)CSc1nc2ccccc2c(=O)n1CCc1ccc(OC)c(OC)c1,-0.2%,11%,.,-7%
C=CCC[C@@H](Cc1ccc(F)cc1)C(=O)OC[C@@H](C)NC(=O)[C@H](CC=C)CC(=O)N(CCO)Cc1ccccc1,0.7%,.,.,13%
CCC(c1nnc(SCc2nc3ccccc3s2)n1Cc1ccccc1)N(C)C (centres undefined),-0.8%,-41%,2,-16%
N/C(=N\OC(=O)CCC1CCCCC1)c1ccccn1,4.7%,-55%,0,-14%
COc1ccc(CCNC(=O)C2CCN(Cc3nc(-c4ccccc4C)oc3C)CC2)cc1OC,-1.9%,14%,-5,-6%
CCOC(=O)c1cnc2c(-c3ccc(F)cc3)cnn2c1C(F)(F)F,1.9%,-12%,?,8%
CCCn1ncc(C(=O)NC2CCCN(Cc3ccc(Cl)cc3)C2)c1C (centres undefined),-0.8%,3%,.,6%
O=c1c2ccccc2nnn1Cc1ccccc1Cl,0.0%,-4%,4,12%
O/N=C/c1ccc2ccccc2c1,-0.2%,-14%,-19,-4%
CCn1c(-c2ccccc2)csc1=Nc1ccc(S(=O)(=O)O)cc1,1.1%,-1%,-2,0%
COc1ccc(S(=O)(=O)CCC(=O)Nc2c(C)n(C)n(-c3ccccc3)c2=O)cc1,1.1%,1%,-2,-8%
CCN(CC)S(=O)(=O)c1ccc(Cl)c(NC(=O)c2cc(Cl)ccc2Cl)c1,-0.9%,-4%,-3,7%
Cc1[nH]c2ccccc2c1C(=O)COC(=O)c1cccc(S(=O)(=O)N2CCCCC2)c1,-0.4%,-3%,-4,0%
CCOc1ccc(NC(=O)CNC(=O)Cc2ccccc2)cc1,-0.1%,-1%,.,1%
CS(=O)(=O)N1CCCC(C(=O)NCCCN2CCOCC2)C1 (centres undefined),0.4%,-3%,-1,12%
O=C(NCc1ccccc1)/C(=C/c1ccc(OC(F)F)cc1)c1ccccc1,-1.9%,1%,-9,17%
Cc1cc(=O)cc(C)n1-c1ccc(O)cc1,4.5%,-2%,3,-1%
CC(=O)OCc1ccccc1Sc1ccccc1C(=O)NCc1ccccc1,1.6%,-11%,-15,-5%
O=C(NCCc1nnc2ccc(N3CCCC3)nn12)c1ccccc1,0.0%,.,.,-11%
Cc1csc(N/N=C/c2ccccc2F)n1,-2.3%,-45%,.,-21%
Cc1nc(=O)c(-c2ccccc2)c(C)n1CC1CCCO1 (centres undefined),-4.9%,0%,4,-23%
O=c1[nH]c(-c2ccccn2)nc2sc(-c3ccccc3)cc12,?,-35%,?,?
COc1cccc(NC(=O)Cn2c(=O)n(-c3ccccc3)c(=O)c3oc4ccccc4c32)c1,-2.5%,-3%,0,1%
CCCCN(C(=O)c1oc2ccc(OCC)cc2c1C)c1c(N)n(CC(C)C)c(=O)[nH]c1=O,-5.1%,.,.,-4%
COc1cc(OC)cc(C(=O)NCC(=O)OCC(=O)N2c3ccccc3NC(=O)C2(C)C)c1,0.3%,-2%,-7,-6%
CCCOc1ccc(/C=C/C(=O)N2CCN(c3ccccn3)CC2)cc1,-4.9%,-1%,2,8%
CC(C)CCN1CCN(Cc2cccc3nonc23)CC1CCO (centres undefined),-3.8%,-6%,6,0%
CCOc1ccc(C(=O)NCC(=O)OCc2c(F)cccc2Cl)cc1OCC,-2.0%,-8%,-20,-21%
O=C(N1CCN=C1SCc1cccnc1)C12CC3CC(CC(C3)C1)C2,0.0%,-14%,2,-13%
O=[N+]([O-])c1ccc(C2CNC(c3ccccc3)O2)cc1 (centres undefined),0.5%,-1%,1,-15%
O=C(Cc1cccc2ccccc12)N/N=C/c1ccc(Sc2cccc3cccnc23)o1,.,-3%,-6,.
COc1ccc(Cc2nc(-c3ccc(-n4cccc4)cc3)no2)cc1,-1.6%,-14%,-2,-10%
Cn1c(SCC(=O)NC2CCS(=O)(=O)C2)nc2ccccc21 (centres undefined),-0.9%,.,.,-2%
CN(CC(=O)Nc1ccccc1[N+](=O)[O-])Cc1ccc(Br)cc1,-6.9%,-12%,0,0%
C/C(=N\NC(=O)c1ccoc1C)c1ccccc1,3.3%,-72%,0,3%
CNC(=O)OCc1nc(SSC(C)(C)C)n(C)c1COC(=O)NC,-1.3%,.,.,-2%
Cc1cccc(C)c1NC(=O)CSCC(=O)c1ccc(O)c(O)c1,-0.5%,-12%,-2,16%
CCC(C)[C@H](NC(=O)N1CC(=O)Nc2ccccc21)C(=O)N[C@H](Cc1ccccc1)C(=O)O (some centres undefined),-1.0%,-2%,.,3%
COc1ccc(CCNC(=O)c2cc3ccccc3oc2=O)cc1,-0.2%,-5%,.,-2%
COC(=O)CNC(=O)COC(=O)C(Cc1ccccc1)NC(=O)c1ccco1 (centres undefined),2.2%,4%,0,3%
N#CC(c1ccccn1)(c1ncc(C(F)(F)F)cc1Cl)N1CCOCC1 (centres undefined),3.2%,-3%,1,3%

# Fetched by compound from the list above:
SMILES,Rango complex inh,miR-21 FLuc,GLA inh pH 4.5,Rango dissoc inh
CNC(=O)OCc1nc(SSC(C)(C)C)n(C)c1COC(=O)NC,-1.3%,.,.,-2%
COC(=O)CNC(=O)COC(=O)C(Cc1ccccc1)NC(=O)c1ccco1 (centres undefined),2.2%,4%,0,3%
N#CC(c1ccccn1)(c1ncc(C(F)(F)F)cc1Cl)N1CCOCC1 (centres undefined),3.2%,-3%,1,3%
C/C(=N\NC(=O)c1ccoc1C)c1ccccc1,3.3%,-72%,0,3%
CCC(C)[C@H](NC(=O)N1CC(=O)Nc2ccccc21)C(=O)N[C@H](Cc1ccccc1)C(=O)O (some centres undefined),-1.0%,-2%,.,3%
